Screens: PubChem, PCMD
Biofilm kill mix: mixture kills Candida albicans biofilm cells. C. albicans biofilm persisters + clotrimazole, fluorescence viability; primary screen in compound mixtures of four per well. inhibition, % at 7.6 µM. actives 0.02% (n = 120,000). AID 1242;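 active means inhibition above 30.3% in the primary screen of four-compound pools, then above 30% when the compound was retested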;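 further: compounds exposed to preformed 24 h biofilms for 48 h; the number belongs to the whole pool; some results filed as inactive read as strong as hits; inactives centre near 12; 0% = biofilm with clotrimazole alone and 100% = kill control; retested singly at about 60 µM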
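Incubation: 24 h biofilm formation, then 48 h compound exposure, 37 °C | Material: C. albicans biofilms | Buffer or medium: RPMI/MOPS medium, pH 7.0 | Measured by: 2-h Alamar Blue fluorescence, 535/590 nm excitation/emission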
* marks the source's active call; other numbers are inactive results.

SMILES	Biofilm kill mix
COc1ccc(/C=N/NC(=O)COc2cccc3ccccc23)c(C(=O)O)c1OC	-3
COc1cccc(-c2nnc(SCC3CNC(=O)O3)n2-c2ccc(Cl)cc2)c1 (stereo not given)	11
C=CCn1c(CCNC(=O)c2cccs2)n[nH]c1=S	15
N#Cc1cc2c(nc1SCc1ccccc1)CCCC2	22
O=[N+]([O-])c1ccc2c(c1)nc1n2CCSC1	16
O=C(NCc1cccnc1)C(=O)NCC1OCCCN1S(=O)(=O)c1ccccc1 (stereo not given)	13
COc1ccc2ccccc2c1/C=N/NC(=S)Nc1cc(S(=O)(=O)N2CCOCC2)ccc1N1CCOCC1	17
COc1cc(C2c3c(oc4ccccc4c3=O)C(=O)N2c2nccs2)ccc1O (stereo not given)	14
CCOc1ccc(Cl)cc1/C=N/NC(=O)c1ccccc1	8
CC1=CC(C)(C)[N+](C)=CN1c1ccccc1	15
COc1ccc(OCC(O)CN2CCN(c3ccc(Cl)cc3)CC2)cc1 (stereo not given)	28
CCc1cccc(C)c1NC(=S)NCC(c1cccnc1)N1CCOCC1 (stereo not given)	1
C/C(=N\Nc1nc(-c2ccccc2)cs1)c1cccs1	8
O=C(O)Cc1cn(-c2ccccc2)nc1-c1ccccc1	13
COc1cc2c(cc1OC)C1(CCCC1)CNC2c1cccc([N+](=O)[O-])c1 (stereo not given)	16
Cc1cccc(/N=C/C2=C(O)CC(C)(C)CC2=O)n1	22
Cn1cc(C(=O)N2CCc3ccccc3C2)c(=O)c2cc(S(=O)(=O)N3CCCCC3)ccc21	10
O=C(/C=C/c1ccco1)N(Cc1ccc(F)cc1)C1CCS(=O)(=O)C1 (stereo not given)	24
Cc1nnnn1/C(=C\c1ccccc1)C(=O)OCC(=O)N(C)C1CCS(=O)(=O)C1 (stereo not given)	-9
C[C@H](NC(=O)c1nc[nH]c1C(=O)NCc1ccccc1)C(=O)OC(C)(C)C	12
CC1(C)Cc2nc3[nH]c(=S)[nH]c(=O)c3cc2CO1	20
Cc1ccc(OCCn2cc(C#N)c3ccccc32)cc1	20
O=C(Nc1ccnc(-c2cccnc2)n1)c1ccc(F)cc1	6
COc1ccc(F)cc1S(=O)(=O)Nc1cccc(C(=O)O)c1	17
C=CCn1c(Sc2ccccc2)nc2c1c(=O)[nH]c(=O)n2C	11
O=C(O)c1ccccc1-c1ccccc1C(=O)NNc1ccc([N+](=O)[O-])cc1	1
Cc1cc(=O)n2c(n1)NC(Nc1cccc(C)c1C)=NC2c1ccc(F)cc1 (stereo not given)	24
Cc1ccc(S(=O)(=O)N2CCN(CC(=O)NC(=O)NCc3ccco3)CC2)cc1C	10
Cc1cc(C)nc(N/C(=N\S(=O)(=O)Cc2ccccc2)Nc2ccccc2Br)n1	-5
O=C(CSc1nnc(CNC(=O)c2ccco2)o1)Nc1ccccc1	16
CC(=O)c1c(NCCc2ccccc2)nc(=S)n(-c2ccccc2)c1C	11
COc1ccc(NC(=O)CSc2ccccn2)c([N+](=O)[O-])c1	6
CCN(CC)S(=O)(=O)c1ccc2c(c1)c(=O)c(C(=O)NCc1cccs1)cn2C	9
COc1ccccc1OCC(=O)Nc1cc(S(=O)(=O)N2CCCCC2)ccc1N1CCCCC1	-6
COc1cc2c(cc1OC)C(c1cccc([N+](=O)[O-])c1)NC(=O)C2 (stereo not given)	18
O=C1CN2NC(=S)N(c3ccccc3)C2=CN1c1ccc(Cl)cc1	-9
Cc1cc(C(=O)CCl)c(C)n1-c1ccon1	16
Cc1[nH]c(C(=O)N/N=C/c2ccc(N(C)C)cc2)c(C)c1C(=O)N/N=C/c1ccc(N(C)C)cc1	22
COC(=O)c1cn(-c2ccccc2)nc1-c1ccc(OC)cc1	26
O=C(Cc1c(Cl)cccc1Cl)Nc1cccc(S(=O)(=O)N2CCOCC2)c1	9
COc1cccc(CNC(=O)CNC(=S)N(Cc2ccccc2)Cc2ccccc2F)c1	15
COCCNCCCOc1ccc(Br)cc1Cl	15
S=C(c1ccccc1)N1CCCc2ccccc21	6
COc1ccc(C(=O)NCC(O)COc2ccc(C(C)(C)C)cc2)cc1[N+](=O)[O-] (stereo not given)	5
O=C(NNC(=O)c1n[nH]c(=O)c2ccccc12)c1ccc(Br)cc1	9

Copied from the entries so far, seven compounds:
SMILES	Biofilm kill mix
COc1ccc(NC(=O)CSc2ccccn2)c([N+](=O)[O-])c1	6
CCN(CC)S(=O)(=O)c1ccc2c(c1)c(=O)c(C(=O)NCc1cccs1)cn2C	9
COc1ccccc1OCC(=O)Nc1cc(S(=O)(=O)N2CCCCC2)ccc1N1CCCCC1	-6
COc1cc2c(cc1OC)C(c1cccc([N+](=O)[O-])c1)NC(=O)C2 (stereo not given)	18
O=C1CN2NC(=S)N(c3ccccc3)C2=CN1c1ccc(Cl)cc1	-9
Cc1cc(C(=O)CCl)c(C)n1-c1ccon1	16
Cc1[nH]c(C(=O)N/N=C/c2ccc(N(C)C)cc2)c(C)c1C(=O)N/N=C/c1ccc(N(C)C)cc1	22

The main list resumes, starting 2 compounds before the break.
SMILES	Biofilm kill mix
COc1ccc(C(=O)NCC(O)COc2ccc(C(C)(C)C)cc2)cc1[N+](=O)[O-] (stereo not given)	5
O=C(NNC(=O)c1n[nH]c(=O)c2ccccc12)c1ccc(Br)cc1	9
Cc1cnc(C(=O)Nc2nc(-c3ccccc3)cs2)cn1	7
O=C(NCc1ccccc1F)c1ccc(S(=O)(=O)Nc2cccc(C(F)(F)F)c2)cc1	15
CCCn1c(C)cc(/C=C(\C#N)C(=O)OCC(=O)Nc2cccc(OC)c2)c1C	13
CCCNC(=O)/C=C/c1ccc(S(=O)(=O)Nc2ccccc2OC)cc1	7
N#Cc1ccc(C(=O)Nc2nnc(-c3ccco3)o2)cc1	15
O=C(/C=C/c1cccc(Cl)c1)N1CCC(Cc2ccccc2)CC1	21
CCOC(=O)C1(C)C=C(Nc2ccc(O)cc2)C(=O)N1c1ccc(O)cc1 (stereo not given)	10
CC(=O)N(CC(C)(C)CC=C(C)C)c1ccccc1	20
COc1ccccc1C(=O)N/N=C/c1ccc(Cl)s1	5
Cc1cc(C)c(C(=O)CSc2nnc(N)s2)c(C)c1	11
COc1ccc(C)cc1N(C(=O)c1ccccc1)c1nc2ccccc2s1	6
COc1ccc(-n2cc(-c3ccc(Cl)cc3)[nH]c2=S)cc1	19
Cc1ccc(-c2nc(SCC(=O)Nc3cc(S(=O)(=O)N4CCCCC4)ccc3Cl)n[nH]2)cc1	6
COC(=O)c1ccc(/C=N/NC(=O)CC(=O)NC2CCCCC2)cc1	19
O=C(N/N=C/c1ccc(Cl)c([N+](=O)[O-])c1)C1CC1	6
Cc1ccc(NC(=O)C(=O)NCc2ccco2)c(C)c1	56
Cc1cc(C(=O)NC(=S)Nc2cccc(NC(=O)C(C)C)c2)ccc1[N+](=O)[O-]	9
COc1ccc(N(C(=O)COc2ccc(C)cc2)S(=O)(=O)c2ccc(C)cc2)cc1	19
Cc1ccc(C)c(-n2nnnc2SCC(=O)NNC(=O)c2ccco2)c1	9
COc1ccc2ncc(OC(C)=O)cc2c1	8
O=C(COC(=O)c1cccs1)Nc1ccccc1C(F)(F)F	15
COc1ccc(/C=N/NC(=O)c2cccc(NC(=O)c3ccccc3Cl)c2)c(OC)c1	4
Cc1ccc(C(=O)C2=C(O)C(=O)N(c3ncccn3)C2c2ccc(F)cc2)o1 (stereo not given)	27
CCC1=C(OC(=O)N(CC)CC)N2C(=O)OC(=NCCc3c[nH]c4ccccc34)[C@]2(Cc2ccccc2)[C@H]2C1=CC[C@H]1C(=O)N(CC(=O)OC)C(=O)[C@H]12	16
COc1ccccc1CNC(=S)Nc1ccc2nc(N3CCN(C)CC3)cc(C)c2c1	11
Cc1ccc(NC(=O)CN2C(=O)N/C(=C\c3cccnc3)C2=O)cc1	6
COc1ccc(N(CC(=O)Nc2ccccc2F)S(=O)(=O)c2ccc(C)c([N+](=O)[O-])c2)cc1	12
CNC(=O)c1c2c(nc3ccc(Br)cc13)CCCC2	10
O=C(c1ccccc1)N1CCn2c1nc1ccccc12	8
CCCCNC(=O)Cn1cnc2sc(C)c(S(=O)(=O)N3CCN(c4ncccn4)CC3)c2c1=O	20

Overlap with the part before: four entries, followed by the next part.
SMILES	Biofilm kill mix
COc1ccc(N(CC(=O)Nc2ccccc2F)S(=O)(=O)c2ccc(C)c([N+](=O)[O-])c2)cc1	12
CNC(=O)c1c2c(nc3ccc(Br)cc13)CCCC2	10
O=C(c1ccccc1)N1CCn2c1nc1ccccc12	8
CCCCNC(=O)Cn1cnc2sc(C)c(S(=O)(=O)N3CCN(c4ncccn4)CC3)c2c1=O	20
CCn1cc(C(=O)OC)c(=O)c2ccc(C)nc21	-18
Cc1cccc(NC(=O)c2ccc(-c3ccccc3[N+](=O)[O-])o2)c1	9
CC1CC(=O)N(c2ccc(NCCc3ccc(O)cc3)c([N+](=O)[O-])c2)C1=O (stereo not given)	12
Cn1cc(/C=C(\C#N)C(=O)Nc2ncc(Cc3cccc(Cl)c3)s2)c2ccccc21	-6
O=C(NCCN1C(=O)S/C(=C\c2cccs2)C1=O)[C@H](Cc1ccccc1)N1C(=O)c2ccccc2C1=O	21
Cc1ccc(CN2CCN(Cc3c(C)nn(-c4ccc(F)cc4)c3C)CC2CCO)o1 (stereo not given)	22
C=CCOC(=O)C1=C(C)OC(N)=C(C#N)C1c1ccc(OC)c(CSc2ccccn2)c1 (stereo not given)	10
CC1(C)C2CCC1(C)C(OC(=O)c1ccccc1C(=O)O)C2 (stereo not given)	29
Cc1cc(=O)oc2cc(OCCSc3nnc(-c4ccccc4)o3)ccc12	4
CCCc1nnc(NC(=O)CCC(=O)N2CCN(S(=O)(=O)c3ccc(C)cc3)CC2)s1	29
COc1ccc(/C=C(/NC(=O)c2ccccc2)c2nc3ccc(Cl)cc3[nH]2)cc1OC	14
O=C(Cn1ncc(Cl)c(Cl)c1=O)N1CCN(S(=O)(=O)c2ccc3ccccc3c2)CC1	7
CCNC(=O)COC(=O)c1ccc(-c2nc3ccccc3s2)s1	11
COc1ccc(OC(=O)C2CC(=O)N(c3ccc(C)cc3)C2)cc1 (stereo not given)	21
Cc1ccc(NC(=O)c2c(-c3ccccc3)noc2C)nc1	-2
OCCCNC(=S)Nc1ccc2nccnc2c1	11
CCCCNCCCOc1ccc(C)cc1Br	21
CN(C)c1ccc(C(CC(=O)c2ccccc2)C2CCCCC2=O)cc1 (stereo not given)	11
CN(C)CCCN(C(=O)CCc1ccccc1)c1nc2ccc(Br)cc2s1	9
CCO[C@H]1OC(C(=O)N2CCN(Cc3ccc4c(c3)OCO4)CC2)=C[C@@H](c2ccccc2)[C@@H]1CCCO	19
CCOC(=O)C1(Cc2cccc(OC)c2)CCCN(Cc2ccc(NC(C)=O)cc2)C1 (stereo not given)	15
CC(C)c1nnc(NC(=O)COc2ccccc2[N+](=O)[O-])s1	25
Cc1cc(Nc2cccc(F)c2)nc(NCc2ccccc2)n1	7
O=[N+]([O-])c1cc(/C=N\O)ccc1Oc1ccc(F)cc1	-4
Cc1[nH]c2ccccc2c1/C=C/c1nc2ccccc2c(=O)n1CCO	4
CS(=O)(=O)N1CCc2ccccc2C1	8
COc1ccc(/C=C/C(=O)OCC(=O)c2c(N)n(C)c(=O)n(C)c2=O)cc1	3
NS(=O)(=O)c1cccc(NC(=O)COC(=O)Cc2ccc(Cl)cc2)c1	14
COc1ccc(N2C(=O)C(=O)/C(=C(/O)c3ccc(C)cc3)C2c2cccnc2)cc1 (stereo not given)	7
COc1cscc1C(N)=O	26
Cc1ccc(-n2c(=O)c3c(n4cnnc24)-c2ccccc2CC32CCCCC2)cc1	17
CCC(C)NS(=O)(=O)c1ccc(S(=O)(=O)N(CCc2ccc(OC)c(OC)c2)Cc2cccs2)cc1 (stereo not given)	10
CCOC(=O)c1c(-c2ccccc2)csc1NC(=O)c1cc(S(=O)(=O)N2CCOCC2)ccc1C	8
COc1c([N+](=O)[O-])c(=O)oc2ccccc12	15
S=c1[nH]nc(-c2cc(-c3ccccc3)n[nH]2)n1/N=C/c1ccccc1	11
Cc1ccc(N2C(=O)N(CC(=O)N3CCOCC3)C(=O)C2C)cc1 (stereo not given)	21
CN(C)Cc1c(O)ccc2c1O/C(=C\C=C\c1ccccc1)C2=O	14
O=C1Cc2ccccc2C(c2ccc(Cl)cc2)N1 (stereo not given)	6
CCc1nc2ccc(C(=O)Nc3ccc4c(c3)OCO4)cc2nc1CC	-5
CC1=C(C(N)=O)C(c2cccs2)NC(=S)N1 (stereo not given)	24
CCC(C)Sc1nnc(CSc2nc(C)cc(C)n2)n1C (stereo not given)	12
Cc1cc(NC(=O)CCC(=O)N(CC(=O)NC2CCCC2)Cc2ccc3c(c2)OCO3)no1	12
OC(C#CCN1CCCC1)(c1ccccc1)c1cccc(F)c1 (stereo not given)	18
Cc1ccc(NC(=O)NC2=NN(c3ccccc3)C(=O)/C2=C2/CCCN2C)cc1	10
CCc1ccccc1NC(=S)N(Cc1ccc(C(=O)O)cc1)Cc1ccc(OC)c(OC)c1	25
O=C(N/N=C/c1ccc(OCC(=O)N2CCOCC2)cc1)c1ccccc1Cl	12
CCOc1ccc(NC(=O)CSc2ccccc2N)cc1	20
NC(=O)c1snnc1-c1ccccc1	13
CCCCCCCSc1nnc(-c2ccccc2N)c(=O)[nH]1	1
CNC(=S)Nc1ccc(N2CCN(c3ccc(C(F)(F)F)cn3)CC2)nc1	13
CCC(C)NC(=O)c1[nH]c(C)c(C(=O)OC)c1C (stereo not given)	24
CC(=O)N1N=C(c2ccc(C)cc2)CC1c1ccco1 (stereo not given)	11
COc1cc(CCC(=O)N2CCN(c3ncccn3)CC2)cc(OC)c1OC	8
O=C(Nc1ccccc1C(=O)Nc1cccnc1)c1ccccc1	14

Only part of the results is shown, so the mix of outcomes need not match the whole.
